# Beta cell apopt = blocks beta cell apoptosis. protection from apoptosis, % (concentration not given with the values). AID 435005. INS-1E cytokine-induced death, ATP luminescence, 48 h; percent of positive-control rescue, neutral wells zero. 0.8% of 300,000 active;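 active means all replicates at 75% or more, or half of them and the mean; inconclusive means half reach 75% but not the mean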;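 further: 0% = cytokine-treated negative control wells and 100% = positive control rescue; higher means more ATP so stronger rescue from cytokine killing; wells of about 40 µL received 100 nL stock; the first replicate is given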
# Calb FLC = affects C. albicans growth with fluconazole; C. albicans CaCi-2 (fluconazole-resistant clinical isolate) + fluconazole, Alamar Blue growth, 48 h; growth inhibition, % (concentration not given with the values); 0.57% of 300,000 active; AID 1979;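 active means most replicates above 75%; inconclusive means exactly half above 75%; inactive means most below 75%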;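 further: all wells also contain fluconazole at 8 µg/ml as a sub-toxic cotreatment; 0% = median of DMSO wells and 100% = median of geldanamycin control wells; wells of about 8 µL received 7.5 nL stock; the first replicate is given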
# ALR inh = inhibitors of human sulfhydryl oxidase ALR; AID 485317; 3.8% of 290,000 active; P55789; purified ALR, DTT oxidation, H2O2 HRP-luminol luminescence; inhibition, % (no concentration beside the values);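 active means mean and each replicate at 75% or more; inconclusive means only one of the two met; inactive means neither met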;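 further: stock transfer was 7.5 nL into about 7.5 µL; 0% = neutral wells and 100% = wells with inactivated enzyme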
# Target sequence (P55789 whole entry, looked up): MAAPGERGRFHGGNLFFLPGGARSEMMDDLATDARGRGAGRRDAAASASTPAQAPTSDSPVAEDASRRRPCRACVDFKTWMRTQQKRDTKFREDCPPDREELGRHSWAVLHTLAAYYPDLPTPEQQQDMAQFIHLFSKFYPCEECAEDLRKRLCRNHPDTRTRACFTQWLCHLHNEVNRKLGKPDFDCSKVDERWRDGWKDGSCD
# T cruzi inh = blocks replication of Trypanosoma cruzi | T. cruzi beta-gal in NIH3T3, luminescence, 90 h | inhibition, % (test concentration not listed) | 1.4% of 300,000 active | AID 1885;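 active means mean inhibition across valid replicates above about 55%, limit read from the data; inconclusive means mean below that limit but half or more replicates reach it; inactive means mean below it, under half of replicates reach it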;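 further: signal also drops with host cell toxicity which is not excluded here; 0% = plate median of DMSO wells and 100% = zero luminescence signal; higher percent means less beta-gal luminescence so fewer parasites; stock transfer was 50 nL into about 50 µL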
# LANA-H2B inh = blocks KSHV LANA binding to histone H2A/H2B | cell-free LANA-H2A/H2B peptide, fluorescence polarization | Q9QR71 | inhibition, % (test concentration not listed) | 0.6% of 320,000 active; in the data active means inhibition mostly above about 10%, no sharp cut-off; inactive means mostly below about 6.7%;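 further: stock transfer was 7.5 nL into about 10 µL; 0% = median of vehicle wells and 100% = median of positive control wells; one replicate is shown; the record names a cut of 25% in any replicate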
# Ecoli rRNA inh = inhibitors of bacterial rRNA selective over humanized ribosomes. E. coli WT GFP vs humanized-ribosome RFP mutants, fluorescence, 24 h; stronger effect = lower value; DMSO median 0, no signal -100. GFP signal change (wild-type ribosome), % (test concentration not listed). 1.6% of 350,000 active;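 active means significant combined selectivity score with lowered wild-type GFP, culture density cut under 30%, mutant RFP and density less affected; inactive means any of these conditions unmet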; further: one replicate is shown; some compounds called inactive have numbers as strong as hits
# B2AR ag = human beta-2 adrenergic receptor agonism by FAP. response, % (concentration not given with the values). Am2.2-beta2AR cells, FAP receptor internalization, flow cytometry; reference of the scale not given here. 0.43% of 340,000 active. P07550. AID 504454;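 active means response above a set limit, near 3 SD of response in nonfluorescent compounds, cut at about 42% in these data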;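 further: stock transfer was 100 nL into about 11 µL; a reference agonist was the positive control; negative values mostly stem from fluorescent compounds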
# Target sequence (P07550 whole entry, looked up): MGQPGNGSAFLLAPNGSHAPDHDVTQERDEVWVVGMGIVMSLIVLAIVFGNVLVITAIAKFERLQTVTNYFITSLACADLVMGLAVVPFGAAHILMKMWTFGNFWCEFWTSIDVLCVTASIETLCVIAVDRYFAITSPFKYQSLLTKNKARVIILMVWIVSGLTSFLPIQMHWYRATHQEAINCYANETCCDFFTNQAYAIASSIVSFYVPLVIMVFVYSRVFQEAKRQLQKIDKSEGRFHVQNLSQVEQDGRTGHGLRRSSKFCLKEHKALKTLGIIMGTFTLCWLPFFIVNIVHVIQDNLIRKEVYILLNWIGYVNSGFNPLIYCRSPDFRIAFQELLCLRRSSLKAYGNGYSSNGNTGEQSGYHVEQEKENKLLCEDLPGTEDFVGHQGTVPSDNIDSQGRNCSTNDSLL
# A1 inh = inhibitors of the anti-apoptotic protein A1, read as caspase activation | 0.066% of 330,000 active | MEF A1-2A-BIM cells, Caspase-Glo 3/7 luminescence, 3 h; percent of clofoctol response, vehicle zero | caspase activation, % (concentration not given with the values);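 active means over half of replicate activation scores above 10%, or exactly half above 10 with the replicate mean above 10; inconclusive means replicate mean below 10 yet half the replicates above 10; inactive means over half of replicates below 10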;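 further: wells of about 30 µL received 50 nL stock; many hits fall short of the cut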
# Ecoli rRNA inh OD600 = second read-out of Ecoli rRNA inh, no call of its own (marks repeat the call); OD600 change, %; measured here: OD600 growth;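 optical density of the mix in the first replicate; 0 = DMSO median and -100 = no signal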
# Ecoli rRNA inh RFP = second read-out of Ecoli rRNA inh, no call of its own (marks repeat the call); RFP signal change, %; measured here: RFP humanized mutant strains;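 first replicate; 0 = DMSO median and -100 = no signal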
# * marks the source's active call; other numbers are inactive results; u = inconclusive; x = not tested or not shown.
SMILES,Beta cell apopt,Calb FLC,ALR inh,T cruzi inh,LANA-H2B inh,Ecoli rRNA inh,Ecoli rRNA inh OD600,Ecoli rRNA inh RFP,B2AR ag,A1 inh
COc1ccc(S(=O)(=O)CC(=O)c2cc3cc(Br)ccc3oc2=O)cc1,-3,-13,19,-2,-56,-22*,0.4*,2.4*,9,-0.5
CC(C)C[C@H](N)C(=O)N1CCC(C(=O)N[C@H](C(=O)NCc2ccc(F)cc2)C(C)C)CC1,-1,13,-1,-8,-2.9,x,x,x,2,0.2
COCCn1nnnc1C(CC(C)C)N1CCN(c2ccccc2)CC1 (stereo unspecified),-3,-14,93*,-6,0.8,x,x,x,1,0.2
CCN1CCCC1CN(Cc1cc2c(C)cc(C)cc2[nH]c1=O)C(=O)NC1CCCCC1 (stereo unspecified),-12,-2,0,9,1.8,x,x,x,-10,0.2
CC(C)c1ccc(OCC(=O)NC(=S)Nc2ccc3c4c(cccc24)CC3)cc1,-6,-2,-15,3,-1.2,x,x,x,1,0.3
O=C(CN1C(=O)S/C(=C\c2ccccc2Cl)C1=O)NCCCn1ccnc1,x,5,-6,-34,1.4,-1,-9,0.4,4,1.4
CCCn1c(S(=O)(=O)O)nc2ccccc21,-4,-13,-2,-10,5.0,5,-6,-9.3,0,1.4
O=C(Nc1ccc(F)c(Cl)c1)c1cccnc1,-4,-11,-4,-4,4.2,18,20,4.2,0,-1.0
COc1cc(Cl)c(C)cc1NC(=O)COC(=O)C1=NN(c2ccccc2)C(=O)CC1,-4,x,-6,x,2.1,1,6,-1.6,0,0.4
COc1cccc(-c2nc(CS(=O)(=O)CC(=O)NCCCN3CC(C)CC(C)C3)c(C)o2)c1 (stereo unspecified),5,-3,90*,-15,-2.9,4,1,2.6,8,-0.8
Cc1ccccc1-c1nc(CN2CCC(C(=O)NCc3ccco3)CC2)c(C)o1,-3,71,-1,0,1.9,x,x,x,-5,0.3
Cc1nnsc1SCCNC(=O)Nc1ccc(Cl)cc1,10,1,-1,17,2.3,-39,-50,-1.8,2,0.6
O=C(NN=C1C2CC3CC1CC(Cl)(C3)C2)c1ccccn1,-1,-5,-13,14,-0.1,11,14,-0.9,-5,0.4
Cc1c(OCC(=O)N2CCC[C@@H]2C(=O)O)ccc2c3c(c(=O)oc12)CCC3,5,5,2,-7,-6.2,x,x,x,-3,2.7
CC(=O)NC(=C(Cl)Cl)S(=O)(=O)c1ccccc1,-32,11,-4,3,-3.6,14,24,5.4,-16,0.0
CC(C)Cc1nnc(NC(=O)CCC(=O)N2CCN(c3ccc(Cl)cc3)CC2)s1,-2,23,19,5,-2.3,6,10,-4.9,-6,-0.8
O=C(COC(=O)c1ccccc1Br)NCc1cccs1,-5,x,5,x,-0.6,2,9,1.5,-4,-0.3
O=C(CN1C(=O)/C(=C\c2cccc(Br)c2)Oc2ccccc21)NCC1CCCO1 (stereo unspecified),4,-3,8,-10,-1.1,5,7,-1.1,7,-0.3
O=C(O)C1CC=CCC1C(=O)N1CCCC1 (stereo unspecified),-5,-1,-5,3,0.5,x,x,x,-18,0.0
COc1ccccc1N1CCN(C(=O)CN(c2ccccc2OC)S(=O)(=O)c2ccccc2)CC1,x,-22,12,19,-1.9,x,x,x,2,0.8
CC(C)C(=O)NC(C)C(c1cccs1)N1CCOCC1 (stereo unspecified),1,-17,-10,7,0.7,15,3,2.6,1,0.1
COC(=O)c1ccccc1NC(=O)/C=C/c1ccco1,-13,u,2,12,-3.4,5,16,-4.6,10,-3.5
Cc1ccc(S(=O)(=O)Nc2ccc(-n3c(C)nc4ccccc4c3=O)cc2)cc1,x,17,-13,-5,3.0,-12,-13,-3.7,8,-0.3
N#C/C(=C\c1ccc(F)cc1)c1n[nH]c(Cn2cncn2)n1,0,8,-1,-14,-0.1,x,x,x,3,0.0
CC(=O)c1ccccc1OCCCCN1CCCCC1,-4,-6,-4,17,-2.1,25,12,0.4,-10,0.3
CSc1ccc(/C=N/N2CCN(Cc3ccc(C)cc3C)CC2)cc1,3,21,-8,8,3.8,x,x,x,-5,-0.4
CC(=O)Nc1ccc(SC[C@H](CC(C)C)N2CCN(CC(C)C)CCC2=O)cc1,-5,-3,98*,19,-0.3,-3,-2,-11,-9,-0.5
C/C=C/Cn1c(Br)nc2c1c(=O)n(C)c(=O)n2C,-2,2,-1,0,3.1,4,4,0.0,0,1.6
CC(NC(=O)c1ccc(Cl)cc1)c1nnc(SCc2ccc([N+](=O)[O-])cc2)n1C (stereo unspecified),-1,8,-2,22,6.5,x,x,x,9,-0.9
CS(=O)(=O)c1ccc(C(=O)Nc2cc(S(C)(=O)=O)ccc2Cl)cc1,-2,-6,x,-11,1.1,14,11,0.6,3,-0.3
O=c1[nH]c(N/N=C/c2cc3c(cc2[N+](=O)[O-])OCO3)nc2ccccc12,-5,5,x,0,4.6,11,0,-1.3,0,-0.4
COc1ccc(C(=O)/C=C/N2CCCCC2)cc1OC,3,-3,-16,-5,-1.7,x,x,x,0,-2.1
O=C(CSc1ccccc1)N(c1ccc(Br)cc1)c1nccs1,-7,-28,57,14,3.2,x,x,x,-6,1.6
CC(NC(=O)C(NS(=O)(=O)c1cccs1)C(C)C)c1ccc(S(N)(=O)=O)cc1 (stereo unspecified),-1,x,-1,x,-2.1,12,2,1.6,1,1.6
COc1cc(CNCCc2ccc(S(N)(=O)=O)cc2)ccc1OCc1ccc(Cl)cc1,23,0,3,66*,12,-52,-79,-29,55*,0.8
Fc1cccc(CN2CCN(Cc3nc(-c4cnccn4)no3)CC2)c1,-1,2,-1,-9,x,28,3,-1.9,-3,0.1
Cc1cc(C)n(C(=O)CCCCCC(=O)n2nc(C)cc2C)n1,4,4,-11,0,1.8,x,x,x,5,-0.3
CCOc1ccc(C(=O)NCc2ccccc2OC)cc1,-3,1,-1,-4,3.6,x,x,x,0,-0.1
CCN(CC)C(=O)CSc1nc2ccccc2c(=O)n1CC,-7,-7,-5,2,-1.9,x,x,x,-11,0.0
CCNC(=O)c1ccc(-n2nc(C)cc2-c2ccccc2)cc1,-3,-1,2,3,4.1,x,x,x,-11,1.1
CN(C)CC(O)CN(c1ccccc1)c1ccccc1 (stereo unspecified),-9,-2,99*,7,-7.8,0,4,-2.3,3,-0.5
COCCCN1CC(=O)N2C(c3ccc(C)cc3)c3[nH]c4ccccc4c3C[C@H]2C1=O (stereo partly specified),-6,3,-11,3,3.3,-13,-5,3.0,0,-0.2
FC(F)(F)c1ccccc1NC(=S)NN1CCOCC1,4,-15,3,-2,-1.1,x,x,x,3,-0.1
Cc1cc(N/C=C/C(=O)c2cccs2)ccc1F,x,-22,-7,-2,11,7,6,3.2,7,-8.6
Cc1cc(C)c(NC(=O)COC(=O)Cn2nc(-c3ccccc3)oc2=O)c(C)c1,-4,x,-4,x,-1.2,8,18,-2.1,1,-0.5
O=C(Nc1cc(N2CCCCC2)ncn1)c1ccccc1,4,49,1,-7,6.0,-7,-2,-2.9,-13,0.7
O=c1[nH]c(NCCO)c(N=Cc2ccccc2)c(=O)[nH]1,-4,-2,-5,-3,-4.9,3,17,1.1,-3,-0.6
COc1cc(C(O)P(=O)(OC2CCCCC2)c2ccc(N(C)C)cc2)cc(OC)c1OC (stereo unspecified),0,59,1,-6,-0.3,x,x,x,8,0.2
CCOC(=O)COc1ccc2c(c1)c(C(C)=O)c(C)n2-c1ccccc1,-2,2,-16,-8,4.2,-3,2,0.7,2,-0.3
Cc1ccc(-c2c(C(=O)N/N=C/C3CCCCC3)nnn2-c2nonc2N)cc1,-5,7,0,9,4.1,4,4,0.8,-5,-2.1
O=C(O)C1CC(=O)N(c2ccc(OCc3ccccc3)cc2)C1 (stereo unspecified),-1,-1,-4,-26,-3.5,x,x,x,-4,-1.2
CCOC(=O)c1ccc(NC(=O)CCc2nc(-c3ccc(Cl)cc3)no2)cc1,-4,-12,-6,29,2.3,x,x,x,-6,-0.8
Cc1ccc(NC(=O)CCn2c(=O)[nH]c3ccsc3c2=O)cc1,-1,-3,-1,5,3.2,-1,1,-0.2,-17,-0.2
COc1cc2ccccc2cc1C(=O)Nc1ccccc1Cl,2,-6,x,3,-0.2,-4,2,-0.1,9,-5.2
O=[N+]([O-])c1ccc2nc(CN3CCCCC3)[nH]c2c1,-1,-3,0,-13,-6.4,4,0,0.4,-1,1.2
O=C(Nc1nnc(S(=O)(=O)N2CCN(c3ccc(F)cc3)CC2)s1)c1ccco1,4,21,-13,-27,17,12,11,0.2,7,-0.3
N#Cc1ccccc1OCCN1C(=O)c2ccccc2C1=O,0,-6,-3,6,-3.4,x,x,x,-16,-1.7
O=C(COC(=O)c1ccc(Cl)c([N+](=O)[O-])c1)Nc1ccccc1OC(F)F,-11,-11,7,-9,8.3,x,x,x,1,0.1
O=C(NNC(=O)c1ccc(SCC2CCCO2)c([N+](=O)[O-])c1)c1ccc(Cl)c([N+](=O)[O-])c1 (stereo unspecified),-2,-5,0,12,1.3,x,x,x,-2,-0.2
COc1ccc(C(=O)NCCS(=O)(=O)NCc2ccc3c(c2)OCO3)cc1,x,-1,-4,-20,-5.9,13,5,0.4,15,0.0
# Continuation:
SMILES,Beta cell apopt,Calb FLC,ALR inh,T cruzi inh,LANA-H2B inh,Ecoli rRNA inh,Ecoli rRNA inh OD600,Ecoli rRNA inh RFP,B2AR ag,A1 inh
CCN(CC)S(=O)(=O)c1cc(C(=O)OCC(=O)c2ccc3c(c2)NC(=O)CO3)ccc1F,-4,-6,-3,-4,1.5,x,x,x,1,0.8
CCOC(=O)c1cccc(N2C(=O)c3ccccc3S2(=O)=O)c1,-5,u,-2,-8,1.5,x,x,x,-2,0.2
CCOC(=O)Nc1cc2c(cc1C(C)=O)OCO2,0,-3,-9,-12,4.4,x,x,x,2,-0.2
Cn1c(N)c(C(=O)CSc2n[nH]c(-c3ccccc3)n2)c(=O)n(C)c1=O,-4,x,0,x,1.3,32,27,0.8,-6,0.0
O=C(NCc1ccc(Cl)cc1)N1CCN(S(=O)(=O)c2ccccc2)CC1,0,-4,-3,-5,-5.9,-17,-8,2.4,6,0.2
CC(C)(C)OC(=O)N1CCC[C@H]1C(=O)O,-3,2,24,-3,2.4,14,14,22,7,0.3
O=C(O)Cc1coc2cc3c(cc12)CCC3,-8,4,u,-9,-0.5,-1,4,-1.4,-2,-1.0
CN(C)S(=O)(=O)c1ccc(C(=O)NCc2ccccn2)cc1,-5,-6,-2,-9,2.1,3,9,-2.9,-1,1.2
Cc1ccc(/C=N/NC(=O)c2nnn(-c3nonc3N)c2-c2ccccc2)o1,-6,2,-5,-2,-1.9,2,8,4.0,-5,0.8
O=C(Nc1ccc2nc3ccccc3nc2c1)c1ccccc1,-3,-1,-70,-5,4.4,x,x,x,-9,-3.6

# This is a subset; the hit share may differ from the screen's.
